RE007 growth inh: less growth of the S. pombe RE007 Vpr strain. S. pombe RE007 Vpr strain, BacTiter-Glo ATP luminescence, 24 h; control for the full effect not named in the record. Potency, µM (series often up to 92.2 µM), for inactives: top-dose activity change, negative = less growth. 0.21% of 360,000 active. AID 651644; active = well fitted falling curve with a large enough effect; inconclusive = small, poorly fitted or top-dose-only effect; inactive = no such curve, though single readings can be large or run the other way;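 further: nearly all actives have a fitted effect of over 50% in size; the assay follows cell death caused by Vpr and the record does not say whether a fall means rescue or toxicity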
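Fission yeast strain RE007, carrying one chromosomally integrated HIV-1 vpr copy, was seeded at OD 0.01 in PMG+AL medium with 23 nL pinned compound. After 24 h at 30 °C and 99% humidity, viability was read by BacTiter-Glo luminescence.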
2A StopGo: FMDV 2A StopGo reporter, luciferase signal; 1.2% of 410,000 active; AID 1159524; Potency, µM (highest dose often 57.9 µM), inactives show at the top dose signal change, negative = less light; human cells with a luciferase reporter of 2A StopGo recoding; control for the full effect not named in the record; active = well fitted falling curve with a large enough effect; inconclusive = small, poorly fitted or top-dose-only effect; inactive = no such curve, though single readings can be large or run the other way; tested in HEK293T cells; further: nearly all actives have a fitted effect of over 45% in size; luciferase light after 4 h
The depositor's hits bear a star; ? = inconclusive; [ ] = dose if it differs, or a comment. On the % scale 0 is the no-effect control and ±100 the full control effect; potency means the concentration at half of the fitted maximal effect. A portion of the library; rates above refer to the full screens.

Fields: RE007 growth inh | 2A StopGo
Nc1ncnc2c1ncn2[C@@H]1O[C@H](C(=O)NS(=O)(=O)c2ccccc2[N+](=O)[O-])[C@@H](O)[C@H]1O
 : 3.5% | -29.3%
O=C(C(=Cc1ccccc1)c1ccccc1)c1ccccc1
 : 3.1%[18.4 µM] | -9.5%
OC[C@H]1OC(O)[C@@H](O)[C@@H](O)[C@@H]1O (stereo partly drawn)
 : 0.2%[18.4 µM] | -7.1%
COc1ccc(C2=CC(=O)CCC2)cc1
 : 19.2% | 18.8%
CCC1(C)CC(C#N)(C#N)C(=O)NC1=O (stereo not drawn)
 : 0.4%[18.4 µM] | -11.1%
Cc1ccc(Cn2c(C)c3cnn(CC(=O)NCCN4CCOCC4)c(=O)c3c2C)cc1
 : -2.9% | -12.9%
Cc1ccc(Cc2c(-c3ccco3)nc3c4ccccc4ccn23)cc1
 : -29.6% | 3.1%
C[C@H](CO)N1C[C@H](C)[C@@H](CN(C)C(=O)C2CC2)OCc2cnnn2CCCC1=O
 : 13.7% | -3.1%
COC(=O)c1cccc(N2C(=O)C[C@](Sc3ccc(C)cc3)(C(=O)OC)[C@H]2c2ccccc2)c1
 : 10.2% | -18.5%
CCCC(=O)N1CCC1(C)C(=O)NS(=O)(=O)c1cccc(Cl)c1 (stereo not drawn)
 : -2.7% | -22.0%
O=[N+]([O-])c1ccc(CN2CC(N3CCC(Cc4ccccc4)CC3)CS2(=O)=O)cc1 (stereo not drawn)
 : 0.3% | ?
C[C@@H]1CN([C@H](C)CO)C(=O)CCCn2nncc2CO[C@@H]1CN(C)C(=O)Oc1ccccc1
 : 10.6% | -14.0%
CCOC(=O)CCCCCC(=O)Nc1ccc2c(c1)C(=O)N([C@H](C)CO)C[C@H](C)[C@@H](CN(C)S(C)(=O)=O)OCCCC[C@@H](C)O2
 : 2.6% | -24.2%
CCNC(=O)c1cc2c(c(-c3cccc(-c4ccccc4F)c3)n1)[C@@H](CCO)N(C(=O)CC1CC1)C2
 : -17.1% | -19.6%
Cc1nc2c(OCc3ccc(OC(F)F)cc3)cccn2c1N(C)C(=O)CCC1CCCC1
 : -15.5%[18.4 µM] | 25.1µM*
CC(=O)Nc1cccc(-c2csc(C(O)c3ccc(F)cc3)n2)c1 (stereo not drawn)
 : 3.6%[18.4 µM] | -4.2%
OC(c1ccc2ccccc2c1)c1ncc(-c2cccc3ccccc23)[nH]1 (stereo not drawn)
 : -7.6% | -4.3%
Cc1nnsc1C(=O)N1CCCC(C)(C(=O)NS(=O)(=O)C2CC2)C1 (stereo not drawn)
 : -0.5% | -12.8%
OCC1OC(n2cnc3ncccc32)C(O)C1O (stereo not drawn)
 : 8.2%[18.4 µM] | -8.8%
Cc1ccccc1CNC(=O)c1cc2ccccc2o1
 : 5.2% | 36.3%[activator]
CCCc1nc2ccc(C)cn2c1Cc1ccc(C)cc1
 : -12.6% | 0.0%
COc1ccc(C(C)=O)cc1Cn1c(C)c(C(=O)NC2CC2)sc1=O
 : 1.3%[18.4 µM] | -1.8%
COc1ccccc1N1CCN(S(=O)(=O)CCNC(=O)CCc2ccccc2)CC1
 : 10.5% | ?
CCCCc1ccc(S(=O)(=O)NC(=O)C2(C)CCN2C(=O)c2cccc(F)c2)cc1 (stereo not drawn)
 : 7.9% | -15.6%
CCCc1c(-c2cccc(Br)c2)ncn1Cc1ccccc1OC
 : -18.6% | ?
Cc1ccccc1S(=O)(=O)NC(=O)C1(C)CCN1C(=O)C1(c2ccccc2)CC1 (stereo not drawn)
 : 5.6%[18.4 µM] | 28.8%
CCN1C(=O)[C@H]2[C@@H](c3ccc(C(F)(F)F)cc3)N[C@]3(CCCN(Cc4ccccc4)C3=O)[C@H]2C1=O
 : 5.1% | -17.7%
CN[C@H]1C[C@H]2c3[nH]c4ccccc4c3CCN2C(=O)[C@H]1[C@H](C)O
 : 12.6% | -3.3%
CN(C)C(=O)c1cccc(COc2ccc(N3C(N)=NC(N)=NC3(C)C)cc2Cl)c1
 : ? | ?
N#Cc1cccc(NC(=O)c2cc(C3CCCCN3S(=O)(=O)c3cccc4cccnc34)on2)c1 (stereo not drawn)
 : 6.0% | -10.9%

3 entries out of the list, arranged by SMILES length, smallest number first.
Fields: RE007 growth inh | 2A StopGo
COc1ccc(C(C)=O)cc1Cn1c(C)c(C(=O)NC2CC2)sc1=O
 : 1.3%[18.4 µM] | -1.8%
OC(c1ccc2ccccc2c1)c1ncc(-c2cccc3ccccc23)[nH]1 (stereo not drawn)
 : -7.6% | -4.3%
CCCCc1ccc(S(=O)(=O)NC(=O)C2(C)CCN2C(=O)c2cccc(F)c2)cc1 (stereo not drawn)
 : 7.9% | -15.6%

Later entries:
Fields: RE007 growth inh | 2A StopGo
COC(=O)C1C(=O)N(S(=O)(=O)c2ccc([N+](=O)[O-])cc2)c2ccccc21 (stereo not drawn)
 : -8.0% | -13.2%
CC(C)(C)NC(=O)C(c1cc2ccccc2o1)n1c(=O)c(-c2ccccc2)nc2ccccc21 (stereo not drawn)
 : 4.3% | -3.2%
COCOc1cc(O)c(C(=O)/C=C/c2ccccc2)c(OCOC)c1
 : -24.3% | -24.5%
CCCCCCCCN1C(=O)[C@H](CC(=O)NCC23CC4CC(CC(C4)C2)C3)C[C@@]2(C(=O)OC)CC(C)(C)CC=C12
 : ? | -6.3%
CC1CCCN(C(=O)c2cccc(S(=O)(=O)NCc3ccccc3)c2)C1 (stereo not drawn)
 : -10.7% | 6.4%
CN(C)c1ccc(-c2ccnc3c2CC(C)(C(=O)Nc2cccc(N(C)C)c2)O3)cc1 (stereo not drawn)
 : -12.9% | -18.8%
CC(C)C[C@H]1COc2cc(N3CC[C@H](O)C3)ccc2S(=O)(=O)N1
 : 6.6% | -16.1%
CCN1C(=O)[C@H]2[C@@H](c3ccc(C)cc3)N[C@]3(CCCN(Cc4ccccc4)C3=O)[C@H]2C1=O
 : -8.1% | -15.2%
CCCS(=O)(=O)NC(=O)C1(C)CCCN(C(=O)c2ccc(SC(F)(F)F)cc2)C1 (stereo not drawn)
 : 0.1% | -3.9%
C[C@@H]1CN([C@H](C)CO)C(=O)CCCn2nncc2CO[C@H]1CN(C)Cc1ccc2c(c1)OCCO2
 : 0.1% | -23.0%
COc1ccc(CNC(=O)C2(CC3CC(c4ccccc4)=NO3)CCN(C(=O)Cc3ccc(F)cc3)CC2)cc1 (stereo not drawn)
 : 2.4% | -3.3%
CC(NS(=O)(=O)c1cccc(C(=O)N(C)Cc2ccc(N3CCOCC3)cc2)c1)c1ccccc1 (stereo not drawn)
 : -8.0% | 4.9%
O=C(NCCN1CCC(n2c(=O)[nH]c3ccccc32)CC1)c1ccc(C(F)(F)F)cc1C(F)(F)F
 : 3.1% | 20µM*
Cc1ccc(N(CC(=O)N2CCCCCC2)S(C)(=O)=O)cc1
 : -8.5% | 1.1%
C[C@@H]1CN([C@H](C)CO)C(=O)CCCn2nncc2CO[C@H]1CN(C)Cc1ccc(C(=O)O)cc1
 : -26.2% | -5.6%
CCN1C(=O)NC(c2ccccc2)(c2ccccc2)C1=O
 : -17.7% | -18.8%
COc1cccc(-c2cc(CNC(=O)[C@H]3O[C@@H](n4ccc(=O)[nH]c4=O)[C@H](O)[C@@H]3O)no2)c1
 : -13.1% | -23.5%
COc1ccc2oc(C(=O)N3CCN(S(=O)(=O)c4c(C)c(C)cc(C)c4C)CC3)c(C)c2c1
 : 12.7% | -18.1%
CCCS(=O)(=O)NC(=O)C1(C)CCCN(C(=O)c2c(F)ccc(C)c2F)C1 (stereo not drawn)
 : 8.8% | -2.8%
O=C(O)c1cc(Cl)n[nH]c1=O
 : 9.4%[18.4 µM] | -5.3%
CC1=C(C(=O)N(C(C)C)C(C)C)CC(CC(=O)NCc2cccs2)C(=O)N1Cc1ccc(F)cc1 (stereo not drawn)
 : 6.9% | 6.9%
CCN(CC)C(=O)C1=C(C)N(Cc2ccc(C(C)(C)C)cc2)C(=O)C(CC(=O)NCc2cccs2)C1 (stereo not drawn)
 : -21.0% | -11.8%
O=C(NCCc1ccccc1)C1Cc2c(-c3ccc(Cl)cc3)ccnc2O1 (stereo not drawn)
 : 1.1% | -18.7%
O=c1ccn([C@@H]2O[C@H](CNCc3cccn3-c3nccs3)[C@@H](O)[C@H]2O)c(=O)[nH]1
 : -11.2% | 0.0%
COc1ccc(-c2cnc3c(NC(C)=O)cc(-c4ccc(C(=O)NC5CC5)cc4)cn23)cc1OC
 : 2.3% | -23.6%
COc1ccc(C(NC(=O)C2CCN(Cc3ccc(Oc4ccccc4)cc3)CC2)c2ccccn2)cc1 (stereo not drawn)
 : -1.4% | -21.9%
COc1ccccc1-c1cnc(C(O)c2ccc(C)c(F)c2)[nH]1 (stereo not drawn)
 : -27.4%[18.4 µM] | -10.5%
C#CC1(NC(=S)Nc2cccc(OC)c2)CCCCC1
 : 7.5% | ?
Cc1ccccc1CN1C(=O)CN(S(C)(=O)=O)CC1(C)C(=O)Nc1ccc2c(c1)OCCO2 (stereo not drawn)
 : 0.0% | -1.1%
COCCNC(=O)C1C(=O)Nc2ccccc2C(=O)N1C1CCCC1 (stereo not drawn)
 : 7.7% | -11.5%
CCCCNC(=O)c1ccc2nc(CC)c(N(CC)CCOC)n2c1
 : -19.5% | -20.5%
CC1(C(=O)NS(=O)(=O)c2ccccc2Cl)CCN1C(=O)CCC1CCCC1 (stereo not drawn)
 : 3.8%[18.4 µM] | -7.0%
CCc1nc2ccc(C(=O)NCCCN3CCCC3=O)cn2c1N(CC)C(C)=O
 : -7.8%[18.4 µM] | 0.0%
CC(C)C[C@H]1COc2cc(N3CCSCC3)ccc2S(=O)(=O)N1
 : 3.2% | -18.0%
CN(CCc1ccccc1)C(=O)c1ccc(NC(=O)Cc2ccc(NC(=O)C3CCN(C(=O)C4CCC4)CC3)cc2)cc1
 : 5.2% | -26.0%
C#Cc1ccc(NC(=O)C2(C)CCN2C(=O)C2(c3ccccc3)CCCC2)cc1 (stereo not drawn)
 : -10.9%[18.4 µM] | ?
COc1ccc([C@H]2CC(=O)C[C@@H](CCn3cc(-c4ccccc4)nn3)O2)cc1
 : 1.0% | -24.4%
O=C(NCc1ccccc1OC(F)(F)F)C1CCC(=O)N(CCCN2CCOCC2)C1 (stereo not drawn)
 : 8.8% | -7.7%
COc1cccc(-c2oc3c(c2-c2ccc(OC)nc2)C(O)CCC3)c1 (stereo not drawn)
 : -6.7% | -19.1%
O=P(C(=S)Nc1ccccc1Cl)(c1ccccc1)c1ccccc1
 : -6.2% | -24.6%
CCOC(=O)C1(C)CCCCN1C(=O)c1ccco1 (stereo not drawn)
 : 4.4% | -16.7%
COC(=O)C1=C(c2cccc(OC)c2OC)C[C@@H]2CC[C@H]1N2C(=O)NC(C)C
 : 8.2% | 1.8%
CCCCOc1cccc2c(=O)n(CC(=O)Nc3ccc4c(c3)OCCO4)ccc12
 : 4.1%[18.4 µM] | -6.7%
COc1ncc(-c2c(-c3ccccc3OC)sc3ccccc23)cn1
 : -14.0% | -10.4%
CC(=O)Nc1c(-c2ccccc2)nc2ccc(Cl)cn12
 : 17.6% | 3.9%
CCCS(=O)(=O)NC(=O)C1(C)CCN(C(=O)c2ccc(OC(F)F)cc2)C1 (stereo not drawn)
 : 12.8% | -20.9%
CC(C)NC(=O)Nc1ccc2c(c1)C(=O)N([C@H](C)CO)C[C@H](C)[C@@H](CN(C)Cc1ccc3c(c1)OCO3)OCCCC[C@@H](C)O2
 : 25.0% | -18.8%
COC(=O)C[C@H]1C[C@H]2c3cc(NC(=O)C4CCC4)ccc3O[C@H]2[C@H](CO)O1
 : -8.9% | 0.0%
O=C1N(c2ccccc2)c2ccccc2[C@]12C[C@H](O)CO2
 : 0.0% | -6.3%
COC(=O)[C@]12CCCCC=C1N(Cc1ccco1)C(=O)[C@H](CC(=O)NCc1cccs1)C2
 : -14.2% | -14.6%
CC(C)C[C@H]1CN([C@@H](CC(C)C)CN2CCC[C@H]2CN2C(=O)C(=O)NC[C@@H]2Cc2ccc(O)cc2)C(=O)C(=O)N1CC1CCCCCC1
 : -10.1% | 4.6%
Cc1cn([C@H]2C[C@H](O)[C@@H](CNCc3ccc(-c4cc(Cl)ccc4C(F)(F)F)o3)O2)c(=O)[nH]c1=O
 : -12.9% | -5.3%
O=C1NC[C@@H](CCCCN2C[C@H](Cc3ccccc3)N(CCc3ccccc3)C(=O)C2=O)N(Cc2ccccc2)C1=O
 : 2.9% | 4.1%
O=S1(=O)CC(N2CCN(CCO)CC2)CN1CCc1ccccc1 (stereo not drawn)
 : 3.8% | -10.2%
CC(CNC(=O)[C@@H](Cc1ccccc1)NC(=O)CC[C@H]1O[C@@H](n2ccc(=O)[nH]c2=O)[C@H](O)[C@@H]1O)c1ccccc1 (stereo partly drawn)
 : 0.5% | 2.9%
CC(C)(C)OC(=O)N1CCN(C(=O)c2[nH]cnc2C(=O)Nc2ccccc2F)CC1
 : -4.7% | -15.3%
C=CCOC(=O)C1=C[C@H](C2CCCCC2)C[C@H](OCc2ccc(CO)cc2)O1
 : -14.4% | 62.9%[activator]
CN(Cc1ccccc1)C(=O)c1ccc(NC(=O)Cc2ccc(NC(=O)C3CCN(S(=O)(=O)c4cccc([N+](=O)[O-])c4)CC3)cc2)cc1
 : -9.2% | ?
O=C(Nc1cccc(C(F)(F)F)c1)C1Cc2c(-c3ccccc3)ccnc2O1 (stereo not drawn)
 : -1.4% | -17.5%
CCC(CC)C(=O)N(C)c1c(C)nc2c(OCCOc3ccccc3)cccn12
 : -18.7%[18.4 µM] | ?
